Rango release inh = inhibitors of RanGTP-induced Rango-importin beta complex dissociation. O95149+P62826. Biochemical FRET Rango-importin beta, RanGTP-induced dissociation. Potency, µM (highest dose often 46.1 µM), without a hit: at the top dose activity change, negative = inhibition. 340,000 compounds, 0.071% hits. AID 540253; active means falling FRET ratio curve, often poorly fitted, with flat reads before Ran was added; inconclusive means other falling curves, or compound fluorescence or quenching; inactive means flat or rising ratio curve;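 note: potency is the fitted concentration of half-maximal effect; % of control where 0% means no effect; nearly all actives have a fitted effect of over 45% in size; -100% = wells without RanGTP and RCC1; the record marks most hits as doubtful in a second field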
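Quantitative HTS using a FRET biosensor: 0.1 uM Rango, 0.25 uM importin beta, 0.6 uM Ran, 2 mM GTP, 0.2 uM RCC1 final, PBS with DTT, Tween-20 and BSA. Post-read taken 45 min after Ran addition.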
GLA inh pH 4.5 = alpha-galactosidase A (human) inhibition, pH 4.5. 230,000 tested, under 10 active. activity change, negative = inhibition, % at 105 µM. purified enzyme, 4-MU-alpha-Gal fluorescence, pH 4.5; inconclusive = small, poorly fitted or top-dose-only inhibition, or a rising curve; inactive = flat fitted curve, though single readings scatter; no compound was filed as active;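 note: 0% = full activity with enzyme and -100% = basal without enzyme; dose as in the result columns while the protocol names 77 µM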
miR-21 FLuc = raises the signal of a miR-21 reporter; HeLa miR-21 FLuc reporter, luciferase, 48 h; Potency, µM (highest dose often 38.3 µM), without a hit: top-dose reporter change, positive = more light; 340,000 tested, under 10 active; AID 2288; active = well fitted rising curve with a large enough effect; inconclusive = small, poorly fitted or top-dose-only effect; inactive = no such curve, though single readings can be large or run the other way;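 note: % of control where 0% means no effect; miR-21 action dims this reporter so a rising signal means less miR-21 action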
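HeLa cells stably expressing CMV-driven firefly luciferase with a downstream miR-21 binding sequence, endogenously expressing miR-21, were treated with titrations (up to about 40uM final) for 48 hours at 37 degree Celsius. Luciferase luminescence was read after lysis.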
Rango complex inh = Rango-importin beta binding inhibition; Potency, µM (highest dose often 92.2 µM), inactives show at the top dose inhibition of complex formation; Rango CFP/YFP FRET sensor + importin beta, 45 min; Q14974; 340,000 compounds, 0.031% hits; active = rising FRET ratio curve, often small or poorly fitted; inconclusive = mostly compound fluorescence or quenching in the first reads; inactive = flat curves in all reads;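 note: potency is the fitted concentration of half-maximal effect; 0% = DMSO wells and 100% = buffer wells lacking importin beta; nearly all actives have a fitted effect of over 15% in size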
Target sequence (Q14974 whole entry, looked up): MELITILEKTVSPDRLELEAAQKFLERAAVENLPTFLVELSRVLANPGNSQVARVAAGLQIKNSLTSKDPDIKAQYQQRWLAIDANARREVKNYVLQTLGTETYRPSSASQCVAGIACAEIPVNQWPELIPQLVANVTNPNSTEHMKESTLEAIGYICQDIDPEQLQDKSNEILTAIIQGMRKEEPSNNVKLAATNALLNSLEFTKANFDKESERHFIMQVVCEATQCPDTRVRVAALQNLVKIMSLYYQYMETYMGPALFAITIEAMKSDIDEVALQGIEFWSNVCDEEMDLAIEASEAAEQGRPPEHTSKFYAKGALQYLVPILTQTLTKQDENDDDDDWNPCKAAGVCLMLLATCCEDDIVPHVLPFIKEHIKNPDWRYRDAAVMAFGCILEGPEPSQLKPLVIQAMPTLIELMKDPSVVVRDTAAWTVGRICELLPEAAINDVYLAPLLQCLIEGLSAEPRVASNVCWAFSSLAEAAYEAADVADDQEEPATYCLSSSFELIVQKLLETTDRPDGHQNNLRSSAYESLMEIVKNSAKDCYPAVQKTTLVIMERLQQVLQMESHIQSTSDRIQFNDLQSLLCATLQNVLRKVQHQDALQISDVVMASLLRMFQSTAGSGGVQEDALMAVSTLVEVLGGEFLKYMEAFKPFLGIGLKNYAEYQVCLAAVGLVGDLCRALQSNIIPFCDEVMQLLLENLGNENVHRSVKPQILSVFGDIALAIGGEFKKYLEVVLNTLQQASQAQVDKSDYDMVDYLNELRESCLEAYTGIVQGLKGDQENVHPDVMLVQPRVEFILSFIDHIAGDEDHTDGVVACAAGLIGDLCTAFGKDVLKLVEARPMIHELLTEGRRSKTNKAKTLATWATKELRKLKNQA
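FRET biosensor (snurportin 1 IBB flanked by EYFP and cerulean), 50 nM, with compound 5 min, then 0.125 microM importin beta in PBS, 1 mM DTT, 0.02% Tween-20, 0.1% BSA. CFP/YFP ratio read after 45 min at room temperature; pre-read flags interference.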
Numbers without * were called inactive; ? = inconclusive; . = not tested or not shown; & = joins results of further samples. Only part of the results is shown; count on the stated rates, not on these rows.

Results follow in this order: GLA inh pH 4.5 | Rango complex inh | Rango release inh | miR-21 FLuc
> Cc1cnc(C(=O)OCC(=O)NCCc2ccccc2)cn1
  7 | 1.1% | -9% | 5%
> O=C(NC1CCCCC1)c1ccc(Cn2cc(Br)cn2)o1
  1 | -1.0% | -10% | -9%
> CC1(C)Cc2cccc(OCC(=O)NCc3cccs3)c2O1
  . | 4.9% | 3% | .
> N#CN1CCC(NS(=O)(=O)c2ccc(C(F)(F)F)cc2)CC1
  . | -0.4% | 18% | .
> COC(=O)CNC(=O)c1cccs1
  3 | -0.3% | 16% | -1%
> Cc1nn(C(=O)/C(C#N)=C/N(C)C)c(C)c1C
  -4 | 6.9% | 1% | 2%
> CC(C)(C)c1ccc(/C([O-])=C(/C(=S)NCc2ccco2)[n+]2ccccc2)cc1
  2 | . | . | -9%
> CC(C)c1ccc(CN2CC(C(=O)O)CC2=O)cc1 (centres undefined)
  2 | 0.5% | 1% | -3%
> COc1ccc(C2C(C(=O)c3ccco3)=C(O)C(=O)N2CCN2CCOCC2)c(OC)c1 (centres undefined)
  . | 1.2% | -12% | 0%
> Cc1nc(C)n(C(C)CC(=O)O)n1 (centres undefined)
  -4 | 0.5% | 1% | -3%
> CCOc1ccc(Nc2nc(NCc3ccco3)nc(N)c2[N+](=O)[O-])cc1
  -4 | 0.2% | 2% | -9%
> COC(=O)NNC(=O)COc1cc(C)ccc1C
  3 | -0.1% | 18% | -6%
> C/C(=C\C(=S)Nc1ccccc1)Nc1ccc2ccccc2c1
  -10 | 1.8% | -20% | -46%
> COc1ccc(C(=O)OCCN2CCOCC2)cc1OC
  1 | -0.8% | 16% | -12%
> Cc1ccc(NC(=O)CN(C)C(=O)CSc2nc3ccccc3o2)cc1
  -14 | -0.4% | 3% | -9%
> O=CN1CCN(C(=O)CC(c2ccccc2)c2cc(Br)ccc2O)CC1 (centres undefined)
  . | 0.3% | -3% | 0%
> Cc1[nH]c2ccc(F)cc2c(=O)c1SC(F)(F)C(F)F
  -7 | 0.3% | 5% | 6%
> Cn1c(=O)c2c(nc(C3CC4C5CCC(C5)C4C3)n2C)n(C)c1=O (centres undefined)
  . | -2.5% | -7% | .
> COc1ccc(OC)c(S(=O)(=O)N2CCN(C(=O)c3cc(C4CC4)nn3-c3ccccc3)CC2)c1
  . | 0.4% | 6% | .
> CCCn1c(=O)c(C(=O)NCc2cccnc2)c(O)c2ccccc21
  1 | 0.5% | 12% | 2%
> COc1cccc(NC(=O)n2nc(N)cc2-c2ccc(Cl)cc2)c1
  4 | -1.6% | 9% | -11%
> CC1CCC2(CC1)NC(=O)N(Cc1nc(-c3ccccc3)no1)C2=O (centres undefined)
  8 | -0.1% | 21% | 5%
> Cc1ccc2c(c1)N(CC(=O)N1CCCCCC1)C(=O)CO2
  10 | 3.2% | -4% | -7%
> O=C(NCc1ccc(Cl)cc1)C1CCC(CNS(=O)(=O)c2ccccc2)CC1 (centres undefined)
  . | -1.5% | ? | 12%&10%
> Cn1nc(NC(=O)C(F)(F)F)c2ncc(-c3ccc(Cl)cc3)nc21
  -21 | 0.9% | -13% | -94%
> Oc1ccc(N=Cc2ccc(O)c(O)c2)cc1
  -14 | -8.1% | -4% | 22%
> COc1ccc(N2CC(C(=O)NCc3ccco3)CC2=O)cc1 (centres undefined)
  5 | -12% | -24% | 5%
> Cc1ccc(S(=O)(=O)Nc2cccc(C(=O)NC3CCN(Cc4ccccc4)CC3)c2)cc1F
  . | 3.0% | -12% | .
> O=C(O)COc1ccc(/C=N/NC(=O)Cc2ccc(Cl)cc2)cc1
  -3 | 3.3% | 21% | -5%
> COc1ccc(C(=S)N2CCN(c3cccc(Cl)c3)CC2)c(OC)c1
  -8 | 0.9% | -4% | 13%
> Cc1c(NC(=O)C(C)OC(=O)c2cc(Cl)ccc2O)c(=O)n(-c2ccccc2)n1C (centres undefined)
  . | -0.2% | -4% | -2%
> CCC(=O)Nn1c(C)nnc1C
  1 | 1.0% | -14% | -2%
> Cc1ccc(S(=O)(=O)N2CCOCC2)cc1NC(=O)CNCc1ccccn1
  9 | 3.3% | 17% | 0%
> COc1ccc(CCNCC(=O)Nc2c(C)cc(C)cc2C)cc1OC
  . | -3.5% | 21% | -8%
> Cc1cc(C(=O)O)cc(S(=O)(=O)NNC(=O)c2cccs2)c1C
  . | -3.1% | -3% | -5%
> COc1ccccc1Nc1nc(N)nc(CN2CCOCC2)n1
  8 | -5.6% | -19% | -8%
> Cc1occc1C(=O)Nc1nn[nH]n1
  -4 | 0.7% | 4% | -1%
> CCC(C)[C@H](NC(=O)N1CCn2c1nc1ccccc12)C(=O)NCC1CCCO1 (some centres undefined)
  . | 2.0% | -9% | 5%
> CCC(c1nnnn1Cc1ccccc1)N1CCN(c2ccc(OC)cc2)CC1 (centres undefined)
  4 | 0.1% | 0% | -3%
> CC(C)Nc1nc2cccnc2s1
  3 | -2.8% | 28% | -16%
> COCCN(C(=O)COC(=O)C1=COCCO1)c1c(N)n(Cc2ccccc2)c(=O)[nH]c1=O
  . | -0.5% | 0% | -1%
> NC(=O)c1cccc(S(=O)(=O)N2CC(c3ccccc3)CC2=O)c1 (centres undefined)
  -2 | -1.1% | 18% | 2%
> COc1ccc(C(=O)OCC(=O)Nc2ccc(F)c(F)c2)cc1OC
  -12 | -2.4% | 1% | -2%
> OC(CNC1CCCCCC1)COc1cccc2ccccc12 (centres undefined)
  . | -0.2% | ? | ?
> Cn1c(C(=O)O)c(CC(=O)N2CCC(Cc3ccccc3)CC2)c2ccccc21
  -9 | -4.2% | 0% | -17%
> COc1ccc(NC(=O)CCNC(=O)N2CC(=O)Nc3ccccc32)c(OC)c1
  . | -0.7% | 4% | -2%
> CCCCn1c(N)c(N(CCOC)C(=O)CCN2C(=O)C3CC=CCC3C2=O)c(=O)[nH]c1=O (centres undefined)
  . | 1.0% | 16% | .
> CC(C)[C@H](NC(=O)c1ccccc1)C(=O)NC1=NCCS1
  . | 0.2% | 3% | .
> O=C(O)c1ccc2c(c1Sc1ccccc1)C(=O)c1ccccc1C2=O
  -4 | . | . | -6%
> COc1ccc(C(C)C)cc1S(=O)(=O)N1CC(C)OC(C)C1 (centres undefined)
  2 | 3.9% | -1% | 4%
> COc1ccc(CC(=O)NCCc2cnc[nH]2)cc1
  . | ? | -4% | -5%
> O=C(NCc1ccco1)c1nn2cccnc2c1Cl
  6 | -1.9% | 2% | -21%
> Cc1ccc(C2=NOC(=O)/C2=C\C=C\c2ccccc2)cc1
  12 | -2.1% | 0% | -5%
> CN(C(=O)COC(=O)c1ccc(S(=O)(=O)N2CCCC2)cc1)c1ccccc1
  4 | 1.0% | 11% | 0%
> CC(NC(N)=O)C(=O)NCC(=O)OCc1ccccc1 (centres undefined)
  -3 | 4.7% | -1% | -1%
> COc1cc(/C=N/NC(=O)CN(Cc2ccccc2)S(=O)(=O)c2ccc3c(c2)OCCO3)ccc1O
  -7 | -4.1% | 0% | -4%
> O=S(=O)(c1ccc(Br)cc1)N1CCOC12CCCCC2
  -2 | -3.4% | -12% | 1%
> O=C(CCN1CCN(Cc2ccccc2)CC1)Nc1cccc(Br)c1
  . | -0.1% | 0% | 11%
> CSCC[C@H](NC(=O)COc1ccc(Cl)cc1Cl)c1nc2ccccc2[nH]1
  4 | -4.1% | -1% | -1%
> C=CCn1c(Cc2cccs2)nnc1SCC(=O)NC1CC1
  . | 4.5% | -4% | -3%

Brought forward from above: two compounds, then new ones.
Results follow in this order: GLA inh pH 4.5 | Rango complex inh | Rango release inh | miR-21 FLuc
> CSCC[C@H](NC(=O)COc1ccc(Cl)cc1Cl)c1nc2ccccc2[nH]1
  4 | -4.1% | -1% | -1%
> C=CCn1c(Cc2cccs2)nnc1SCC(=O)NC1CC1
  . | 4.5% | -4% | -3%
> COc1cc(/C=C2\SC(=S)N(NC(=O)c3ccncc3)C2=O)ccc1O
  7 | ? | ? | 1%
> O=C(CCl)N1CCN(S(=O)(=O)Cc2ccccc2)CC1
  . | 4.3% | -1% | .
> Cn1c(SCCC(=O)O)nnc1-c1ccncc1
  -21 | 0.4% | 4% | -1%
> CN(C(=O)c1ccncc1)C1CC(C)(C)N(O)C(C)(C)C1
  7 | -1.8% | 0% | -2%
> CC(C)c1nc(SCC(=O)NC2CCCC2)c2c(=O)n(C)c(=O)n(C)c2n1
  . | 3.9% | 0% | 1%
> Cc1cc(C)cc(Nc2nc3c([nH]2)c(=O)n(C)c(=O)n3C)c1
  0 | -0.7% | 7% | 10%
> COc1ccccc1N(CC(=O)NC1CCCCC1)C(=O)CNC(=O)c1cccs1
  . | -0.7% | 16% | 5%
> CC1CCCCC12NC(=O)N(Cn1nnc3ccccc3c1=O)C2=O (centres undefined)
  2 | 1.6% | ? | -5%
> CC(CCC(=O)O)C1CCC2C3C(O)CC4CC(O)CCC4(C)C3CC(O)C12C (centres undefined)
  . | 1.4% | 9% | -1%
> CCOc1ccc(NC(=O)c2ccc(Cl)c(NC(=O)c3ccco3)c2)cc1
  . | -1.2% | 52% | -21%
> COc1ccc(CC(=O)NNC(=O)c2ccccn2)cc1
  . | -4.8% | ? | -7%
> Cc1ccc(OCCNC(=O)c2cc(C3CC3)nc3c2cnn3C(C)C)cc1
  . | -4.4% | -3% | .
> COc1cc(SC)ccc1C(=O)OCc1nc2ccsc2c(=O)[nH]1
  . | 1.6% | -28% | .
> CCCCCCOc1ccc(OCC(O)CN2C(=O)NC(C)(C)C2=O)cc1 (centres undefined)
  -1 | 1.0% | -12% | -37%
> COc1nc(C#N)c(N2CCOCC2)o1
  11 | 6.1% | 15% | -8%
> CCCCn1nc(CC(=O)O)c2ccccc2c1=O
  4 | 0.7% | 1% | 0%
> COc1ccc(C2C3=C(CC(C)(C)CC3=O)Nc3c2c(=O)[nH]c(=O)n3Cc2ccccc2)cc1OC (centres undefined)
  -4 | ? | ? | -11%
> O=C(COC(=O)c1cc(S(=O)(=O)N2CCOCC2)c(Cl)cc1Cl)Nc1ncc(C(F)(F)F)cc1Cl
  -6 | -0.1% | 2% | -4%
> Cn1c(=O)c2c(nc(-n3ccnc3)n2Cc2ccc(Cl)cc2Cl)n(C)c1=O
  7 | -1.0% | 1% | -7%
> COc1ccc(S(=O)(=O)N(C)c2ccc(C(=O)N3CCN(C)CC3)cc2)cc1
  . | -4.1% | -4% | -2%
> O=C(COC(=O)CCN1C(=O)/C(=C\C=C\c2ccccc2)SC1=S)Nc1ccc(Br)cc1
  5 | -1.6% | 3% | 23%
> COC(=O)c1cc(OC)ccc1-c1ccc(OC)cc1
  0 | 0.8% | 23% | -5%
> COc1ccc(NC(C(=O)Nc2cccc(C(C)=O)c2)c2ccccc2)cc1 (centres undefined)
  0 | 0.8% | 11% | -19%
> CCOC(=O)c1[nH]c(C)c(C(=O)OCC(=O)N(Cc2ccccc2)C(C)C)c1C
  . | -3.3% | -2% | .
> Cc1nc(NCCCN2CCOCC2)c2cnn(-c3ccccc3)c2n1
  . | -0.8% | -11% | .
> CC(C)CNS(=O)(=O)c1ccc(CCC(=O)NCc2ccncc2)cc1
  5 | -0.3% | 12% | -1%
> CCCCN(C)C(=O)CSc1nc(NCc2ccc(OC)cc2)c2ccccc2n1
  0 | -4.5% | ? | 5%
> Cc1ccc(CNC(=O)COC(=O)c2ccc(Br)o2)cc1
  . | -4.9% | 7% | .
> COc1ccccc1NC(=O)CNC(=O)c1ccc(F)cc1
  9 | -3.3% | -7% | 0%

Grouped by structure, those above containing a thiophene ring, fused or not (6)
Results follow in this order: GLA inh pH 4.5 | Rango complex inh | Rango release inh | miR-21 FLuc
> CC1(C)Cc2cccc(OCC(=O)NCc3cccs3)c2O1
  . | 4.9% | 3% | .
> COC(=O)CNC(=O)c1cccs1
  3 | -0.3% | 16% | -1%
> Cc1cc(C(=O)O)cc(S(=O)(=O)NNC(=O)c2cccs2)c1C
  . | -3.1% | -3% | -5%
> C=CCn1c(Cc2cccs2)nnc1SCC(=O)NC1CC1
  . | 4.5% | -4% | -3%
> COc1ccccc1N(CC(=O)NC1CCCCC1)C(=O)CNC(=O)c1cccs1
  . | -0.7% | 16% | 5%
> COc1cc(SC)ccc1C(=O)OCc1nc2ccsc2c(=O)[nH]1
  . | 1.6% | -28% | .
